Sfp PPTase inh = qHTS Assay for Inhibitors of Bacillus subtilis Sfp phosphopantetheinyl transferase (PPTase). 4'-phosphopantetheinyl transferase ffp (Bacillus subtilis), Q9F4F7. Biochemical Sfp PPTase activity, qHTS. Potency, µM, for inactives: max response, negative = inhibition, most hits filed as inhibitors. 310,000 tested, 3.5% active. AID 1490, 2009; active = well fitted inhibition curve with a large enough effect; inconclusive = small, poorly fitted or top-dose-only effect, or another doubt; inactive = no such curve, though single readings can be large or run the other way;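 also: the enzyme is Sfp with the accession as filed and its product quenches rhodamine fluorescence; potency is read from the fitted curve at half-maximal effect; 0% = enzyme reaction without inhibitor and -100% = no enzyme wells; top concentration of the series not given in the record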
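With Hepes-Na pH 7.6 buffer containing 10 mM MgCl2, Sfp (15 nM) modified BHQ-2-YbbR (12.5 uM) using rhodamine-CoA (5 uM). Two reads 30 minutes apart at 525/598 nm yielded each well's rate.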
Menin-MLL FL inh = qHTS Assay for Inhibitors Targeting the Menin-MLL Interaction in MLL Related Leukemias: Competition With Fluorescein Labeled MLL-derived Peptide; 290,000 tested, under 10 active; Fluorescence polarization, fluorescein-MLL peptide displacement from menin; FP activity change, % at 61.4 µM; inconclusive = falling polarisation curve, or a change in total fluorescence; inactive = total fluorescence flat and polarisation flat or rising; no compound was filed as active; the % refers to the polarisation; negative = inhibition;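 also: % of control where 0% means no effect; inhibitors lower the polarisation; unlabelled MLL peptide was the positive control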
PINK1 expr mod = A Quantitative High throughput Screen to Identify Chemical Modulators of PINK1 Expression | PINK1 immunofluorescence, high-content cytometry, 24 h | Potency, µM (doses to about 76.6 µM), for inactives: at the top dose activation (PINK1 increase), actives largely listed as activators | 410,000 tested, 0.2% active; active = well fitted activation curve with a large enough effect; inconclusive = small, poorly fitted or top-dose-only effect; inactive = flat fitted curve, though single readings scatter; cell line not stated here;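 also: potency is read from the fitted curve at half-maximal effect; % of control where 0% means no effect; nearly all actives have a fitted effect of over 65% in size; a mitochondrial uncoupler was the plate control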
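Decision-based qHTS: stable cells, 24 h exposure to five compound concentrations, CCCP as control. Fixed cells stained for PINK1 plus nuclear, mitochondrial and cell markers, cytometer read.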
gsp antag = qHTS for Antagonists of gsp, the Etiologic Mutation Responsible for Fibrous Dysplasia/McCune-Albright Syndrome: qHTS; gsp-mutant cells, cAMP HTRF, 30 min; control for the full effect not named in the record; Potency, µM (titrated, usually from 76.9 µM), without a hit: at the top dose activity change, negative = inhibition, usual class: inhibitors; 340,000 tested, 0.4% active; AID 624288, 2012; active = falling curve of any shape with a large fitted effect; inconclusive = falling curve, mostly with a smaller effect; inactive = flat or rising curve; cell line not stated here;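 also: intracellular cAMP measured with PDE inhibitor Ro 20-1724 present during compound exposure; potency is read from the fitted curve at half-maximal effect; % is scaled to controls: 0 for no effect and ±100 for the full control effect; nearly all actives have a fitted effect of over 65% in size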
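HTRF cAMP measurement after 30 min RT detection following 30 min, 37C compound treatment alongside […] (added as 300 uM solution) in G418-selected cells seeded at 2000/well and grown 16–24 h.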
D2 ag = Beta-Arrestin HTS for Positive Allosteric Modulators of the Human D2 Dopamine Receptor: Agonists; activation, % (test concentration not listed); 360,000 tested, 0.084% active; DiscoveRx PathHunter D2 beta-arrestin, luminescence, 90 min; 100% = 57 uM dopamine signal; in the data active = activation above about 40%; inconclusive = about 15% to 40%; inactive = below about 15%; also: compound concentration not given in the record; the text of the record calls up to 30% inactive
Target sequence (P14416 whole entry, looked up): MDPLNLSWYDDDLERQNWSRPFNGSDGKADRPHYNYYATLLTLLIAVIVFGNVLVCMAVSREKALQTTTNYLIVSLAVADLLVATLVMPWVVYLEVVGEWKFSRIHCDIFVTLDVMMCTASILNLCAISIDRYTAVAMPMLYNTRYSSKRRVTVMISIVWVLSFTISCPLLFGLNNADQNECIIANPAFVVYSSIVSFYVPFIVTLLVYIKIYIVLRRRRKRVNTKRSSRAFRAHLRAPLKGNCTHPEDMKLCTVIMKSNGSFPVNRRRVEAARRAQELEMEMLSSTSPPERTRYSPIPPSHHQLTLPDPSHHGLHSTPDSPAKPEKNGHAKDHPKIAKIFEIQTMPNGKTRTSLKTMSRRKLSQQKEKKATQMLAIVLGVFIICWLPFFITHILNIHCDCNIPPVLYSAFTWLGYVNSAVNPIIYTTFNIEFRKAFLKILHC
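DiscoveRx PathHunter D2 beta-arrestin cells (2,100/well) attached overnight, then compound-stimulated 90 min at 37 C in HBSS/10 mM HEPES/0.1% Tween-20 buffer; beta-galactosidase complementation read by luminescence after 1 h at ambient temperature. Dopamine 57 uM final (EC100) as control.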
ClpP mod = qHTS Assay for Activators of ClpP; purified B. subtilis ClpP, FRET peptide cleavage, 20 min; 340,000 tested, 1.9% active; AID 651965, 2013; Potency, µM (highest dose often 57.5 µM), for inactives: at the highest dose activity change, negative = active; ATP-dependent Clp protease proteolytic subunit (Bacillus subtilis (strain 168)), P80244; active = well fitted falling curve with a large enough effect; inconclusive = small, poorly fitted or top-dose-only effect; inactive = no such curve, though single readings can be large or run the other way; also: potency is read from the fitted curve at half-maximal effect; the source files actives as falling curves though it sought activators and does not explain the sign; nearly all actives have a fitted effect of over 65% in size; many hits overshoot -100%
Target sequence (P80244 whole entry, looked up): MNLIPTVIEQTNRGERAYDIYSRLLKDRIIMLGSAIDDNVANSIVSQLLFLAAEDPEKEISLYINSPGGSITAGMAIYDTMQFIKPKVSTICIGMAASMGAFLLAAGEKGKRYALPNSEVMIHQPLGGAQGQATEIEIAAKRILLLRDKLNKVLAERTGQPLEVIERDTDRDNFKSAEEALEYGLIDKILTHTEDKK
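ClpP 10 microg/mL final, pH 8 Tris/KCl buffer with BSA, glycerol, Tween-20; compound pinned in; FRET-FV substrate; RT 20 min; Ex320/Em430; ΔFRET vs ADEP 5.8 microM, DMSO, no enzyme.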
gsp ag = qHTS for Agonist of gsp, the Etiologic Mutation Responsible for Fibrous Dysplasia/McCune-Albright Syndrome: qHTS; 340,000 tested, 0.13% active; Potency, µM (series often up to 76.9 µM), for the others: at the highest dose activation (cAMP increase), usual class: activators; gsp mutant cells, cAMP HTRF, 30 min; control for the full effect not named in the record; active = well fitted activation curve with a large enough effect; inconclusive = small, poorly fitted or top-dose-only effect, or another doubt; inactive = no such curve, though single readings can be large or run the other way; cell line not stated here;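 also: phosphodiesterase inhibitor Ro 20-1724 added with compounds to block cAMP breakdown; potency is read from the fitted curve at half-maximal effect; nearly all actives have a fitted effect of over 60% in size; about a fifth of the inactives were tested at one dose only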
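Cells stably selected in G418 were plated at 2000/well, grown 16-24 hr, then given compounds in DMSO with the PDE inhibitor […] (300 uM solution added) for 30 min at 37C; cAMP was read by HTRF.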
The depositor's hits bear a star; u = inconclusive; x = not tested or not shown; & = joins results of further samples; [ ] = dose if it differs, or a comment.

Below each SMILES: ClpP mod | Menin-MLL FL inh | D2 ag | gsp antag | PINK1 expr mod | Sfp PPTase inh | gsp ag
C[C@@H]1CN([C@H](C)CO)C(=O)CCCn2nncc2CO[C@@H]1CN(C)S(=O)(=O)c1ccccc1F
→ 1.1% | x | -5.7 | x | 2.9% | x | u
COc1ccc(C(=O)[C@@H]2CC[C@](C)(C(=O)O)C2(C)C)cc1
→ 1.8% | x | -0.8 | 2% | 3.2% | x | 3%
CCOc1ccc(N(C(C)C(=O)N/N=C(\C)C(C)(C)C)S(C)(=O)=O)cc1 (configuration not stated)
→ 0.9% | 0.6 | 3.1 | 17% | 4.2% | 4% | 1%
COc1ccc(/C=N\NC(=O)C2COc3ccccc3O2)cc1O (configuration not stated)
→ -19% | 1.9 | 11 | 13% | 6.1% | 9% | 20%
CC(=O)Nc1ccc(NC(=O)C(C)OC(=O)CN2C(=O)C3CCCCC3C2=O)cc1 (configuration not stated)
→ -1.9% | x | -2.8 | 10% | -2.5% | x | u
CN1CCN(C(=O)C2=C[C@H](C3CC3)C[C@H](OCc3ccc(CO)cc3)O2)CC1
→ 0.9% | x | -4.8 | 2% | -0.7% | x | 11%
CC(NC(=O)CSc1nc2ccccc2n1C)c1ccccc1 (configuration not stated)
→ x | -1.0 | -0.2 | -1% | 0.3% | 1% | 17%
CC1Cc2ccccc2N1C(=O)CN(C)S(=O)(=O)c1cccc2cccnc12 (configuration not stated)
→ 1.0% | -1.1 | 0.5 | -3% | -0.4% | -3% | -9%
Cc1nc([N+](=O)[O-])cn1CC(=O)c1ccccc1
→ x | 1.9 | 0.4 | 2% | -0.8% | 19% | -18%[15.4 µM]
O=C(NC(=S)Nc1ccc(Br)c(Cl)c1)C1CC1
→ -4.7% | x | 1.8 | -11% | 5.1% | 11% | -66%[inhibitor]
COc1ccc(/C(O)=C2/C(=O)C(=O)N(CCN(C)C)C2c2cccnc2)cc1C (configuration not stated)
→ x | -4.1 | -2.8 | 10% | -1.4% | 1% | -4%[15.4 µM]
O=C(N=Nc1c(O)[nH]c2ccc(Cl)cc12)c1cc(-c2cccs2)nc2ccccc12
→ 1.4% | 5.5 | -4.2 | 2% | u | u | -16%
OB(O)c1ccc(Br)cc1
→ -4.6% | 5.0 | x | x | -0.5% | 22% | x
COC(=O)N1CN(C(=O)OC)CN(C(=O)OC)C1
→ 0.0% | 2.9 | -3.5 | 11% | -0.8% | 10% | u
COc1ccc(S(=O)(=O)Nc2cccc(C)n2)c2ccccc12
→ -16% | -2.6 | 3.5 | -4% | 0.5% | 18% | 14%
CC1(C)CC(=O)c2cc(OCC(=O)NCCN3CCCc4ccccc43)ccc2O1
→ u | 0.9 | 2.0 | -1% | 3.3%[38.3 µM] | -4% | 34%
O=C(c1cc(-c2ccc3c(c2)OCO3)on1)N1CCCCC1
→ x | -1.6 | 0.6 | 9% | 0.4% | -2% | 1%[15.4 µM]
COc1ccc(S(=O)(=O)N(C)CC(=O)NC2CCCC2)cc1OC
→ 0.6% | x | -3.4 | 9% | 0.8% | 15% | 4%
CC(C)(C)C(=O)Nc1ccc(F)cc1[N+](=O)[O-]
→ 1.6% | 0.4 | -3.0 | 3% | 0.7% | 13% | 2%
O=C(CCc1ccccc1)N=C1SC2CS(=O)(=O)CC2N1c1ccccc1F (configuration not stated)
→ -0.4% | x | 6.9 | -2% | 0.1% | 2% | 27%

Overlap with the part before: four entries, followed by the next part.
Below each SMILES: ClpP mod | Menin-MLL FL inh | D2 ag | gsp antag | PINK1 expr mod | Sfp PPTase inh | gsp ag
O=C(c1cc(-c2ccc3c(c2)OCO3)on1)N1CCCCC1
→ x | -1.6 | 0.6 | 9% | 0.4% | -2% | 1%[15.4 µM]
COc1ccc(S(=O)(=O)N(C)CC(=O)NC2CCCC2)cc1OC
→ 0.6% | x | -3.4 | 9% | 0.8% | 15% | 4%
CC(C)(C)C(=O)Nc1ccc(F)cc1[N+](=O)[O-]
→ 1.6% | 0.4 | -3.0 | 3% | 0.7% | 13% | 2%
O=C(CCc1ccccc1)N=C1SC2CS(=O)(=O)CC2N1c1ccccc1F (configuration not stated)
→ -0.4% | x | 6.9 | -2% | 0.1% | 2% | 27%
O=C(c1ccco1)N1CCN(C(=O)C2CCCO2)CC1 (configuration not stated)
→ 0.8% | 3.4 | 3.2 | 1% | x | 17% | 24%
CCOC(=O)C1CCCN(C(=O)Cn2nc(C)c3c(C)n(-c4ccccc4)nc3c2=O)C1 (configuration not stated)
→ -8.1% | 0.2 | -2.6 | -7% | 3.2% | 3% | 1%
O=C(N/N=C/c1c(O)ccc2ccccc12)C(=O)N1CCCC1
→ 2.6% | x | 0.3 | x | -1.6% | x | -50%[inhibitor]
COCCCn1cc(C(=O)c2cc(OC)ccc2OCC(=O)N2CCCCC2C)cc(C#N)c1=O (configuration not stated)
→ x | -5.6 | -1.3 | -4% | -0.4% | 20% | 3%[15.4 µM]
COc1ccccc1CNC(=O)CCn1c(=O)sc2ccccc21
→ -0.8% | 3.7 | -1.0 | 7% | -4.3%[38.3 µM] | -5% | 1%
O=C1CC(c2ccc(OCCCCCOc3ccc(C4CC(=O)NC4=O)cc3)cc2)C(=O)N1 (configuration not stated)
→ x | 3.7 | 8.9 | u | -0.4% | -2% | 1%[15.4 µM]
CC(C)Sc1nc(SCC(=O)NCc2ccco2)c2c3c(sc2n1)COC(C)(C)C3
→ -3.3% | 2.2 | -2.3 | 3% | 3.9% | -25% | 1%
COc1c(C)cc(C(O)c2ncc(-c3ccc4ccccc4c3)[nH]2)cc1C (configuration not stated)
→ 4.6% | x | 4.1 | x | u | x | x
CCCCCOC(=O)C1=C(C)NC(=O)NC1c1ccc([N+](=O)[O-])cc1 (configuration not stated)
→ -2.2% | 0.1 | 2.0 | -2% | -1.5% | 2% | 9%[15.4 µM]
Oc1ccc(NC(=S)Nc2ccccc2)cc1
→ 0.2%&-0.7% | 1.7&2.3 | 7.2&0.1 | 2%&6% | 0.6%&1.6% | u | -6%&-4%
CC(=O)NC(Cc1cccc(F)c1)C(=O)NC1CCN(C(=O)Nc2ccccc2)CC1 (configuration not stated)
→ x | 0.5 | -2.9 | -15% | 0.7% | 9% | -2%[15.4 µM]
CN(C)CC(=O)Nc1ccc(Oc2ccc(Cl)cc2)cc1
→ x | -0.9 | 3.0 | 9% | 4.3% | -6% | u
O=C(c1ccccc1-c1nc2ccccc2[nH]1)N1CCOCC1
→ -4.5% | u | -2.2 | 3% | 1.2% | 19% | 9%
CCC(C)(C)NC(=O)C(c1sccc1C)N(Cc1ccco1)C(=O)c1csnn1 (configuration not stated)
→ x | x | -1.0 | -8% | 2.8% | 1% | -3%[15.4 µM]
O=C1NC2=C(C(=O)OC2)C(c2ccc(OC(F)(F)F)cc2)N1 (configuration not stated)
→ x | -0.2 | -0.4 | 4% | -0.8% | 10% | 7%[15.4 µM]
COc1ccccc1NC(=O)NCC(=O)Nc1ccc(F)c(F)c1
→ 0.1% | -1.6 | -2.4 | -7% | -1.4% | 9% | 3%
CCOC(=O)C1=CN(Cc2ccco2)S(=O)(=O)NC1c1ccc(C(F)(F)F)cc1 (configuration not stated)
→ 0.8% | x | 1.2 | -1% | -1.0% | x | x
Cc1ccccc1-n1c(SCC(=O)NCC2CCCO2)nnc1-c1ccncc1 (configuration not stated)
→ 1.1% | x | -1.8 | 17% | 2.6% | x | 3%[15.4 µM]
Cc1nc(S/C(=C/c2ccc(-c3ccc(Cl)cc3)o2)C(=O)O)n[nH]1
→ -2.4% | 36[activator] | -3.3 | 0% | -0.7% | u | -3%
O=C(NC1CC1)C1=C[C@@H](c2ccc(Br)cc2)C[C@@H](OCc2ccc(CO)cc2)O1
→ -1.6% | 2.8 | -5.6 | -29% | 0.9% | -9% | x

Continued:
Below each SMILES: ClpP mod | Menin-MLL FL inh | D2 ag | gsp antag | PINK1 expr mod | Sfp PPTase inh | gsp ag
CCNC(=S)NNC(=O)Cn1c(=O)c2c(ncn2CCOC)n(Cc2ccccc2)c1=O
→ x | -1.3 | -0.1 | 6% | 2.3% | 6% | 12%[15.4 µM]
Cn1cnnc1SCC(=O)Nc1ncc(C(F)(F)F)cc1Cl
→ 0.2% | 2.2 | -4.8 | 12% | 0.5% | 2% | -15%
CCn1c(N)[n+](CC(=O)Nc2ccc(SC(F)F)cc2)c2ccccc21
→ x | -0.6 | -0.7 | 16% | -1.5% | 8% | 16%
CC(=O)NC(=S)Nc1ccc(NC(=O)COc2ccc(Cl)cc2Cl)cc1
→ -0.4% | 8.5 | 0.3 | 7% | 13% | -4% | 26%
O=C(/C=N/O)NCCN1CCCCC1
→ -0.8% | 1.3 | 1.8 | 7% | 10%[38.3 µM] | 11% | -8%
Cc1nn(C)c(Cl)c1/C=C/C(=O)O
→ x | 2.3 | -2.6 | -3% | -0.8% | -20% | 6%[15.4 µM]
Cc1ccc(C)c2[nH]c(=O)c(CN(CCN3CCOCC3)Cc3nnnn3CC3CCCO3)cc12 (configuration not stated)
→ -24% | 0.3 | -2.3 | 1% | -2.5%[38.3 µM] | u | 2%
Cc1cccc(OCC(O)Cn2ccnc2C)c1 (configuration not stated)
→ -3.6% | -13 | -1.4 | -3% | 0.3% | 8% | 5%
O=c1oc2ccccc2c(Nc2ccccc2O)c1[N+](=O)[O-]
→ x | 5.5 | -6.8 | x | -0.4% | 7% | -29%[15.4 µM]

Assay outcomes (PubChem BioAssay)
